# TRPML1 blocker: blocks the human TRPML1 channel; Q9GZU1; TRPML1-inducible cells, Ca2+ dye fluorescence, FDSS; stronger effect = lower value; inhibition of EC80 agonist-evoked calcium signal; activity change, negative = inhibition, % (no concentration beside the values); 390,000 tested, 0.02% active; in the data active means activity change below about -50%; inconclusive means about -30% to -50%; inactive means above about -30%;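 further: stimulus is agonist 54-4 at its EC80 concentration; on the % scale 0 is the no-effect control and ±100 the full control effect; compound concentration not given in the record; the text of the record puts the active cut at -80%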
# Target sequence (Q9GZU1 whole entry, looked up): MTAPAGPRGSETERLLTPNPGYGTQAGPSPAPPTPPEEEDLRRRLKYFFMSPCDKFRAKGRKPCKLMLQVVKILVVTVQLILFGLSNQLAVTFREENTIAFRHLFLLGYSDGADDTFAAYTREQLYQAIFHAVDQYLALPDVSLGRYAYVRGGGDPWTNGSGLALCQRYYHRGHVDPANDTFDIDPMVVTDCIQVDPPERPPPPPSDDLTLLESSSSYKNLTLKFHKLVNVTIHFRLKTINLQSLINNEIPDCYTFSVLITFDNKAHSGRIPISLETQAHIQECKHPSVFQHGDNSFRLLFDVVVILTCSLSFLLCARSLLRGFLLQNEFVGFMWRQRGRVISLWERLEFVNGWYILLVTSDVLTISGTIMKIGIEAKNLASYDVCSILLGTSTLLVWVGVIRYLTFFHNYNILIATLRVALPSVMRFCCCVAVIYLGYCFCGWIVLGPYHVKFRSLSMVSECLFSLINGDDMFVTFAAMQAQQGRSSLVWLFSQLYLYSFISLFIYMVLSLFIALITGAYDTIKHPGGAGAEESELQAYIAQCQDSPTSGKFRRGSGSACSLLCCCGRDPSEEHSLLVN
#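 Calcium fluorescence in TRPML1-DL cells induced overnight with Tet: a 110 s read after compound pin addition, then a 110 s antagonist read after challenge with 54-4 at 4 uM final (EC80).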
# ClpP mod: qHTS Assay for Activators of ClpP; ATP-dependent Clp protease proteolytic subunit (Bacillus subtilis (strain 168)), P80244; Potency, µM (titrated, usually from 57.5 µM), without a hit: top-dose activity change, negative = active; AID 651965, 2013; purified B. subtilis ClpP, FRET peptide cleavage, 20 min; 340,000 tested, 1.9% active; active = well fitted falling curve with a large enough effect; inconclusive = small, poorly fitted or top-dose-only effect; inactive = no such curve, though single readings can be large or run the other way; further: potency means the concentration at half of the fitted maximal effect; the source files actives as falling curves though it sought activators and does not explain the sign; nearly all actives have a fitted effect of over 65% in size; many hits overshoot -100%
# Target sequence (P80244 whole entry, looked up): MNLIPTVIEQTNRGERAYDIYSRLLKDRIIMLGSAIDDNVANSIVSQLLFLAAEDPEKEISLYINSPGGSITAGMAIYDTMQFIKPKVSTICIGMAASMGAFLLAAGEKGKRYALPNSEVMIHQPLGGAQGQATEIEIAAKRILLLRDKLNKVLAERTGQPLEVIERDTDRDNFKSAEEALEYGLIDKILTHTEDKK
#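 Buffer: 100 mM Tris/HCl pH8, 100 mM KCl, 0.05% low protease BSA, 2.5% glycerol, 0.01% Tween-20. ClpP 10 microg/mL final; 20 min RT; delta FRET normalized to ADEP and DMSO controls.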
# Sfp PPTase inh: inhibitors of Bacillus subtilis Sfp phosphopantetheinyl transferase; Potency, µM, for the others: max response, negative = inhibition, actives largely listed as inhibitors; Q9F4F7; Biochemical Sfp PPTase activity, qHTS; 310,000 tested, 3.5% active; active means well fitted inhibition curve with a large enough effect; inconclusive means small, poorly fitted or top-dose-only effect, or another doubt; inactive means no such curve, though single readings can be large or run the other way;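 further: the enzyme is Sfp with the accession as filed and its product quenches rhodamine fluorescence; potency means the concentration at half of the fitted maximal effect; 0% = enzyme reaction without inhibitor and -100% = no enzyme wells; top concentration of the series not given in the record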
#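 After 15 min at room temperature with compound, 15 nM Sfp received 5 uM rhodamine-CoA plus 12.5 uM BHQ-2-ybbR (50 mM Hepes pH 7.6, 10 mM MgCl2). Rate came from the fluorescence difference over 30 min, ex 525/em 598 nm.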
# PINK1 modulator: modulators of PINK1 expression; PINK1 immunofluorescence, high-content cytometry, 24 h; Potency, µM (highest dose often 76.6 µM), without a hit: at the highest dose activation (PINK1 increase), hits mostly activators; 410,000 tested, 0.2% active; AID 624263; active = well fitted activation curve with a large enough effect; inconclusive = small, poorly fitted or top-dose-only effect; inactive = flat fitted curve, though single readings scatter; cell line not stated here;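 further: potency means the concentration at half of the fitted maximal effect; % of control where 0% means no effect; nearly all actives have a fitted effect of over 65% in size; a mitochondrial uncoupler was the plate control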
#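 Readout is PINK1 immunofluorescence, quantified alongside mitochondrial, cell and nuclear markers by laser-scanning microplate cytometry. Cells from a stable line were exposed to compound titrations (5 concentrations) for 24 hours, with CCCP controls.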
# TRPML1 ag: agonists of human TRPML1 channel; Q9GZU1; TRPML1-expressing cells, Ca2+ dye fluorescence, FDSS; host cell line not named in the record; reference of the full effect not given here; activation, % (no concentration beside the values); 410,000 tested, 0.12% active; in the data active = activation above about 50%; inconclusive = about 30% to 50%; inactive = below about 30%; further: 0% is about no effect; the text of the record puts the active cut at 80%
#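 Calcium fluorescence on an FDSS kinetic reader gave the read-out. Tet-induced TRPML1-DL cells were plated overnight, dye-loaded (Ca8 with quencher, 45-90 min, room temperature, dark), then read 110 s after compound addition, and again 110 s after 4uM final 54-4 (EC80).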
# Menin-MLL FL inh: inhibitors of human menin-MLL interaction, wild-type MLL peptide; Fluorescence polarization, fluorescein-MLL peptide displacement from menin; FP activity change, % at 61.4 µM; 290,000 tested, under 10 active; AID 1766; inconclusive = falling polarisation curve, or a change in total fluorescence; inactive = total fluorescence flat and polarisation flat or rising; no compound was filed as active; the % refers to the polarisation; negative = inhibition;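 further: % of control where 0% means no effect; inhibitors lower the polarisation; unlabelled MLL peptide was the positive control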
# TRPV1 potentiator: potentiators of human vanilloid receptor 1 (TRPV1); Q8NER1; TRPV1-expressing cells, Fluo-8 calcium influx, capsaicin EC20 potentiation; host cell line not named in the record; control for the full effect not named in the record; potentiation, % at 8.33 µM; 320,000 tested, 0.02% active; AID 540277; active means potentiation above 80%; inconclusive means 30% to 80%; inactive means below 30%; further: 0% is about no effect
#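 Cells expressing TRPV1 were dye-loaded with Fluo-8 and read kinetically: 10 s baseline, 3 min after compound (agonist portion), then 2 min after EC20 capsaicin (allosteric enhancer portion). Calcium-bound dye fluorescence at 480/520 nm.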
# Starred values were filed as active, the others as inactive; u = inconclusive; x = no result given; [ ] = dose if it differs, or a comment.
Molecule	TRPML1 blocker	ClpP mod	Sfp PPTase inh	PINK1 modulator	TRPML1 ag	Menin-MLL FL inh	TRPV1 potentiator
C/C=C(\C)CN1CCCC(N(C)CCc2ccc(OC)c(OC)c2)C1 (configuration not stated)	7.2	0.1%	10.3%	1.1%	0.6	0.8	-3.2
CC(C)(C)OC(=O)N1CCC(C(=O)N[C@H](C(=O)O)c2ccccc2)(c2ccccc2)CC1	-26.5	0.2%	10.1%	0.9%	0.0	-3.7	-7.9
COc1ccccc1C1CC(=O)NC(C)=C1C(=O)OCC1CCCO1 (configuration not stated)	26.5	-2.6%	14.6%	-0.9%	-0.6	6.9	-9.9
CCCSc1nc2sc3c(c2c(=O)n1-c1cccc(Br)c1)CC(C)(C)OC3	-16.3	2.5%	x	-1.4%	0.9	x	x
COc1ccc(CCN(C)C(=O)CSc2nnnn2C)cc1OC	2.0	-1.5%	-1.8%	0.0%	0.9	0.4	10.0
O=C(CC1Nc2ccccc2NC1=O)Nc1ccccc1NC(=O)CC1Nc2ccccc2NC1=O (configuration not stated)	x	x	-13.5%	x	x	5.4	9.3
CCn1cc(CCC(=O)NCc2ccc(C)cc2)c2ccccc21	30.8	u	x	0.2%	2.0	x	x
COc1ccc(OC)c(CNC(=O)Nc2cn(CC(C)C)c(=O)c3ccccc23)c1	4.6	3.8%	x	-3.4%	1.3	x	x
CC(CCO)Nc1nc2c(c(=O)n(C)c(=O)n2C)n1Cc1ccc(Br)cc1 (configuration not stated)	26.5	-9.2%	x	0.9%	1.0	x	x
C/C(=N\NC(=O)c1c(Br)c(C)nn1C)c1ccc(NC(=O)c2ccoc2C)cc1	0.7	1.9%	-9.8%	14.6%	-0.5	-1.8	9.2
Brc1ccc(OCCOCCN2CCOCC2)cc1	8.7	-0.1%	11.6%	-1.9%[38.3 µM]	0.5	1.9	-10.8
CCOC(=O)Cc1c(C)nc2cc(-c3ccc(C(C)(C)C)cc3)[nH]n2c1=O	-0.2	31.6µM*	15.3%	23.0%[38.3 µM]	0.6	0.2	-3.1
Nn1c(Cc2cccc3ccccc23)nnc1SCC(=O)NC1CCS(=O)(=O)C1 (configuration not stated)	-3.9	-1.9%	7.6%	-0.5%	2.1	-1.2	9.1
N/C(=N\O)c1ccc(Oc2ccccc2Cl)c([N+](=O)[O-])c1	-4.7	-2.7%	0.1%	-1.3%	1.7	-4.3	u
COCCN(CCOC)C(=O)C1CCCN(S(=O)(=O)c2ccc(NC(=O)OC)cc2)C1 (configuration not stated)	16.1	-1.4%	0.0%	0.3%	-0.4	-0.5	-4.2
CCCOc1ccc(C(=O)CCC(=O)Nc2ccc(N3CCN(C)CC3)cc2)cc1	4.2	-0.3%	x	1.0%	2.4	x	-7.6
CCOC(=O)N1CCC(NC(=O)C2CCCCN2S(=O)(=O)c2ccc(F)cc2)CC1 (configuration not stated)	5.0	0.0%	1.7%	-0.4%	-0.9	-2.6	x
CC(C)CN(C(=O)CCC(=O)OC(C)C(=O)Nc1cccc(C#N)c1)c1c(N)n(CC(C)C)c(=O)[nH]c1=O (configuration not stated)	-12.0	x	x	-0.2%	0.6	x	27.1
Cc1cc(C)cc(C(=O)Oc2cc(C)[nH]c(=O)c2[N+](=O)[O-])c1	-17.5	1.2%	9.0%	0.1%	0.7	x	-12.9
COc1ccccc1CCn1c(=O)c(-c2cn(C)c3ccccc23)nc2cncnc21	x	x	-13.2%	6.0%	x	u	x
NC(=S)NC(c1ccccc1)c1ccncc1 (configuration not stated)	-20.4	x	x	-2.6%	1.5	x	x
O=C1c2ccccc2C2N1CCCN2C(=O)c1sc2ccccc2c1Cl (configuration not stated)	11.4	-2.1%	x	-0.2%	2.0	x	x
O=C(NCCCN1CCN(c2ccccc2F)CC1)c1ccc2nc(N3CCCCC3)sc2c1	-1.7	-10.6%	x	-0.7%	0.2	x	x
Cc1ccc(C(=O)NNC(=O)COc2ccc(Cl)cc2C)o1	-12.2	0.5%	x	-0.6%	-0.2	x	16.5
NNc1ccc(Cl)nn1	2.2	x	44.7µM*	-0.9%	0.2	5.0	u
O=C(Nc1nnc(-c2cccc(F)c2)s1)Nc1ccccc1F	-8.2	x	-8.6%	-1.7%	0.5	6.7	-3.6
CC(C)(CNC(=O)CNC(=O)C1CCCCC1)N1CCOCC1	10.3	-2.4%	x	4.6%	-0.7	x	4.6
Cc1nnc(SCc2cccc(Oc3ccccc3)c2)n1N	-3.9	3.16µM*	6.6%	1.1%	-0.3	1.5	4.8
Cc1ccc(S(=O)(=O)CCC(=O)Nc2nnc(-c3ccco3)o2)cc1	-7.7	-2.3%	x	0.6%	0.3	x	15.5
CN(C)S(=O)(=O)c1ccc(C(=O)Nc2cccnc2)cc1	4.9	-0.4%	13.3%	-1.2%	0.7	0.3	28.2
O=C(O)CCC(=O)Nc1nc2nc(-c3ccccc3)cc(-c3ccccc3)n2n1	4.6	-7.9%	7.6%	-3.2%	-0.3	25.6	12.0
CCN(CC)C(=O)[C@H]1CC(CC(=O)NCCN2CCOCC2)C(=O)N2CCc3c([nH]c4ccccc34)[C@]12C (some centres not stated)	-16.2	-5.9%	x	-0.4%	0.0	x	x
O=C(c1ccco1)N1CCN(C(c2coc3ccc(Cl)cc3c2=O)c2nnnn2C2CCCC2)CC1 (configuration not stated)	19.4	0.4%	x	2.3%	3.2	x	x
O=c1c(-c2ccc(F)cc2)nc2cnc(N3CCOCC3)nc2n1Cc1cccs1	x	x	-3.6%	7.5%	x	8.5	x
CCC(=O)N(CCC1(c2ccccc2OC)CCOC(C(C)C)C1)Cc1ccco1 (configuration not stated)	28.1	x	11.6%	2.5%	3.0	0.2	0.6
CCOC(=O)C(C#N)=C1CCC=C(C)C1	8.7	-0.1%	x	1.9%	-0.8	x	x
CCCSc1nnc(Cn2c(=O)sc3ccccc32)n1-c1ccccc1	0.9	-0.5%	-17.5%	2.6%	2.1	4.6	x
COc1ccc(/C=C/C(=O)NCCC(=O)N2CCCN(C)CC2)cc1	-0.7	x	-1.5%	0.0%	-0.5	4.1	11.3
Cn1c(=O)n(C)c2cc(N3CCCCC3)c(NC(=O)c3c(F)cccc3F)cc21	-2.3	-1.9%	x	2.4%	-1.3	x	x
CCCCN1CC(COc2ccccc2)OC1=O (configuration not stated)	12.7	-8.1%	-6.6%	x	-0.5	-0.8	1.2
COc1ccc(S(=O)(=O)N2CCN(C(=O)CN3C(=O)NC(C)(C)C3=O)CC2)cc1	15.6	-1.1%	x	-0.5%	-0.5	x	-11.9
Cn1ccnc1SCC(=O)Nc1ccc(SC(F)F)cc1	-3.3	1.6%	x	2.2%	-1.4	x	x
COc1ccccc1/C=N/NC(=O)c1ccc(=O)n(C)c1	-17.5	-9.8%	14.0%	0.2%	-0.1	5.2	-1.9
COc1ccc(-c2n[nH]c(C)c2-c2cnn(-c3ccccc3)c2)c(O)c1	5.8	-10.1%	5.4%	6.9%[38.3 µM]	2.7	-0.2	-4.3
CCCNC(=O)C1(C)CCN(C(=O)c2cccc(C#N)c2)C1 (configuration not stated)	4.6	0.5%	x	3.1%	0.5	x	x
CCOC(=O)C1CCN(Cc2nc3ccc([N+](=O)[O-])cc3c(=O)n2-c2ccc(OC)cc2OC)CC1	2.6	-1.1%	5.4%	1.2%	-0.7	1.1	7.8
CC(C)C[C@@H]1CN(CCCC[C@H]2CNC(=O)C(=O)N2CCC2CCCCC2)C(=O)C(=O)N1Cc1ccccc1	x	0.0%	x	0.6%	-0.5	x	x
COc1cccc(C(=O)N2C(C(=O)O)CSC2c2ccccc2Cl)c1 (configuration not stated)	2.3	-2.5%	-8.3%	1.5%	0.2	6.2	-9.4
O=C(NCC(c1ccco1)N1CCCCC1)c1ccc([N+](=O)[O-])s1 (configuration not stated)	1.9	-0.5%	x	3.1%	-0.1	x	x
Cc1cccc(N2CCN(C(c3ccccc3)c3nnnn3C(C)(C)C)CC2)c1C (configuration not stated)	-10.8	-4.2%	-5.0%	2.6%	16.6	6.7	-4.5
CSc1nc(Cl)c(Cc2ccc(OCC(C)C)cc2)c(N2CCOCC2)n1	17.5	-15.3%	-4.6%	4.1%	0.7	4.1	3.9
COC(=O)CN(C(=S)Nc1ccc(F)cc1)C1CC(=O)N(c2ccccc2)C1=O (configuration not stated)	13.0	-2.2%	13.0%	-0.6%	1.1	2.8	-0.7
COc1ccc(NC(=S)Nc2cc(C)cc(C)n2)cc1OC	11.7	0.5%	-8.1%	13.8%	-0.5	7.7	23.9
Cc1c(C#N)c(O)[nH]c(=O)c1N=Nc1ccc(Br)cc1C(=O)O	-6.4	x	-15.8%	1.7%	-0.1	u	2.3
COc1ccc2sc(-c3ccc(N(C)C)cc3)c(C#CCO)c2c1	11.5	3.9%	x	13.8%	2.4	x	-5.3
Cc1ccc(S(=O)(=O)N(C)c2ccc(C(=O)NCC(c3cccs3)N3CCOCC3)cc2)cc1 (configuration not stated)	-12.4	-26.8%	-6.4%	u	1.2	x	-4.5

# Remaining list, next part:
Molecule	TRPML1 blocker	ClpP mod	Sfp PPTase inh	PINK1 modulator	TRPML1 ag	Menin-MLL FL inh	TRPV1 potentiator
O=C1NCCc2c1[nH]c1ccc([N+](=O)[O-])cc21	3.1	x	4.3%	-0.2%	0.5	-2.4	1.6
NC(=O)CC1Nc2cccc3cccc(c23)NC1=O (configuration not stated)	5.0	-0.7%	-7.7%	0.1%	1.3	0.1	-21.3
CSc1nc(N)nc(SCC(=O)Nc2ccc(Cl)cc2)c1C#N	11.9	-7.0%	8.9%	5.8%[38.3 µM]	1.4	-1.4	-9.6
Cc1ccc(N2C(=O)CSC23C(=O)N(CC(=O)NC2CCCCC2)c2ccccc23)cc1 (configuration not stated)	1.2	0.0%	x	-3.9%	1.7	x	x
CCOC(=O)c1ccc([N+](=O)[O-])cc1NC(C)=O	-8.3	0.4%	8.8%	-0.9%	-0.3	2.4	6.5
CCc1ccccc1N(CC(=O)N1CCCCC1)S(=O)(=O)c1ccccc1	4.8	1.3%	14.4%	-0.5%	-1.5	-1.2	-7.8
Cc1cccc(N(CC(=O)N2CCOCC2)S(C)(=O)=O)c1C	-8.4	3.0%	0.6%	-3.6%	-0.7	1.2	2.7
